Bioassay records (PubChem)
Rce1 inh: inhibitors of yeast Ras-converting enzyme | Q03530 | yeast membranes, quenched prenylated peptide cleavage fluorescence | calls only | 290,000 tested, 0.27% active | AID 2563;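 active = fall in fluorescence gain of 50% or more versus controls, with final raw signal at or below 3038400; inconclusive = same 50% fall but final raw signal above 3038400; inactive = fall in fluorescence gain under 50%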;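 note: plate controls were neutral control wells for no effect and wells lacking membranes for full effect; tested at 10 µM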
Target sequence (Q03530 whole entry, looked up): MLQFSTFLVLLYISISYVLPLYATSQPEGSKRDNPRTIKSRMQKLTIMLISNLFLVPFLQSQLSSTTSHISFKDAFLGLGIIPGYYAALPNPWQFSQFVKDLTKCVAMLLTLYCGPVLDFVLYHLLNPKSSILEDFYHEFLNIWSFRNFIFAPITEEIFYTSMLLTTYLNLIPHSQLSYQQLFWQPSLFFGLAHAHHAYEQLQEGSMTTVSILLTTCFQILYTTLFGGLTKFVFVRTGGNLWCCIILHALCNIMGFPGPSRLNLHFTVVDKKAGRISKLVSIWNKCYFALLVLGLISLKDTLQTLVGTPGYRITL
eIF4H FP inh: inhibitors of RNA binding by human eIF4H. eIF4H fluorescence polarization binding assay. Q15056. 290,000 tested, 0.94% active. inhibition, % at 35 µM;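 active = 50% or more with normal probe brightness, or confirmed in later tests; inconclusive = above 50% with abnormal brightness, or retests that disagree; inactive = below 50% or failed in later tests; about a fifth of its hits are not listed in these tables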;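 note: calls also rest on retests at 20 µM and on dose response follow-up; 0% = protein and probe with vehicle and 100% = probe without protein; strong numbers were not always called active; many hits fall short of the cut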
PABP FP inh: PABP-poly(A) binding inhibition | 290,000 tested, 1% active | AID 2014 | PABP-poly(A) RNA binding, fluorescence polarization | P11940 | inhibition, % at 35 µM;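 active = 50% or more with normal probe brightness, or confirmed in later tests; inconclusive = above 50% with abnormal brightness, or retests that disagree; inactive = below 50% or failed in later tests; about a fifth of its hits are not listed in these tables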;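 note: calls also rest on retests at 20 µM and on dose response follow-up; controls were probe without protein and protein plus probe with vehicle; some compounds called inactive have numbers as strong as hits; many hits fall short of the cut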
Target sequence (P11940 whole entry, looked up): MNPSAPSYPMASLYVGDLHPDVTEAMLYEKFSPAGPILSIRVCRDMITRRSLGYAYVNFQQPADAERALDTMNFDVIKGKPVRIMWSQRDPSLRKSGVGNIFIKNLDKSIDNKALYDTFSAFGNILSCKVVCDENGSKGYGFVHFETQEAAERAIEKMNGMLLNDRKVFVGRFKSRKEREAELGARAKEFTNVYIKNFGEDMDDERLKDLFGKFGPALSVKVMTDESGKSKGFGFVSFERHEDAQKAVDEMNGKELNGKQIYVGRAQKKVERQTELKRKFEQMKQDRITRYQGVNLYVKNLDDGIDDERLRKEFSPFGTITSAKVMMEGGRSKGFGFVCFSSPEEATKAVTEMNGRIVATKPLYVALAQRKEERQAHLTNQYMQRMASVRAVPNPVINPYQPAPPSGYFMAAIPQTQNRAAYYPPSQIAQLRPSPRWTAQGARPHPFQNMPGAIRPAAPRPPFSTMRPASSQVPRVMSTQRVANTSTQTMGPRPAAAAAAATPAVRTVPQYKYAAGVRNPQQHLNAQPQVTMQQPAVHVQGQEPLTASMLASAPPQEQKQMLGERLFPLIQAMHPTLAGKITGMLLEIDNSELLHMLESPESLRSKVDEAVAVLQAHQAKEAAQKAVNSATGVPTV
Env fusion inh: HIV envelope-mediated fusion inhibition; HeLa-JRFL Env/CEM21 cell fusion, luciferase; inhibition, % at 12.3 µM; 360,000 tested, 1.1% active; AID 651610;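 active = mean replicate inhibition score of at least 50 and every replicate individually at or above 50; inconclusive = only one of the two criteria met; inactive = mean below 50 and not all replicates reaching 50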;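 note: 0% = plate neutral controls and 100% = maraviroc near 300 nM; one replicate is shown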
MT1-MMP act inh: blocks activation of human MT1-MMP; HT1080 RFP-PRO-GFP cells, GFP/RFP ratio fluorescence, overnight; percent of plate control window, DMSO zero; GFP/RFP ratio change, % at 20 µM; 360,000 tested, 0.061% active; P50281;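 active = GFP/RFP ratio change of at least 30% with cell ATP level not reduced by more than half and red fluorescence within 50% of control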; note: strong numbers were not always called active
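Assay system – RFP-PRO-GFP reporter HT1080 cells · Compound dosing – single dose of 20 µM compound, 1% DMSO final · Incubation – overnight compound exposure at 37 °C · Measure – GFP/RFP fluorescence ratio · Benchmarks – DMSO wells and RFP-L50D-GFP cells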
Yeast UUG start: yeast start codon fidelity modulation | S. cerevisiae UUG-firefly luciferase reporter, luminescence/redox ratio | activity score, % at 18.7 µM | 350,000 tested, 0.13% active | AID 602363;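 active = replicate mean at a twofold rise or more, about +100% in these data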;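 note: firefly luciferase made from a UUG start codon reports start codon fidelity; reporter light over untreated wells divided by growth signal over untreated wells; some hits fall short of that in this replicate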
CSC inhib: cancer stem cell inhibition; 300,000 tested, 1.1% active; inhibition, % at 7.5 µM; AID 2717; cancer stem cell-like cells viability, luminescence;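 active = mean at 75% or more and at least half the replicates too; inconclusive = mean and replicates disagree; tested in HMLE shEcad cells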;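 note: 0% = median of negative and 100% = median of positive control wells; the first replicate is given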
MT1-MMP act inh RFP: recorded beside MT1-MMP act inh, whose call it bears; RFP signal change, %; measured here: RFP expression control read;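 0 = vehicle wells; hits needed this value within 50% of zero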
Numbers without * were called inactive; i = inactive; ? = inconclusive; . = no result given; + = active, no number.

SMILES | Rce1 inh | eIF4H FP inh | PABP FP inh | Env fusion inh | MT1-MMP act inh | MT1-MMP act inh RFP | Yeast UUG start | CSC inhib
COc1ccccc1N/C=C/c1onc(C)c1[N+](=O)[O-] | i | 28 | 2 | -47 | -69 | 3 | . | 18
Cc1ccc(N(C)S(=O)(=O)c2nnc(NC(=O)c3ccco3)s2)cc1 | i | -12 | 7 | 3 | -1 | 1 | . | 20
Cc1ccc(NC(=O)Cn2ccsc2=N)c([N+](=O)[O-])c1 | i | -4 | -13 | 7 | 3 | 6 | . | -1
N#Cc1ccc(C23CC4(C2)[C@H](CN(CC2CCCCC2)[C@@H]4c2ccccc2)C3c2ccc(C(F)(F)F)cc2)cc1 (stereo not given in full) | i | -9 | -12 | -15 | . | . | . | .
CC1CCN(c2ccc(C(=O)O)cc2NS(=O)(=O)c2ccc(Br)cc2)CC1 | i | 1 | 46 | -4 | 6 | -2 | -5 | -9
CNC(=O)Nc1ccc2nc(C)oc2c1 | i | -6 | -4 | -11 | -3 | 0 | -15 | -2
COc1ccccc1-c1cnc(C(O)c2ccc(C)c(F)c2)[nH]1 (stereo not given) | . | . | . | -15 | 3 | -6 | -3 | .
Cc1cc(=O)oc2c3c(cc(OCC(=O)NCC(=O)N[C@H](C(=O)O)C(C)C)c12)OC(C)(C)CC3 | ? | -5 | -9 | 4 | -2 | -1 | 12 | 0
Cc1[nH]n(-c2ccccc2)c(=O)c1/C=C1/C=c2ccccc2=N1 | i | 0 | 3 | -14 | 2 | 2 | . | .
Cc1ccc(C(=O)CC(C(=O)O)c2cn(CCC#N)c3ccccc23)cc1 (stereo not given) | . | -1 | -6 | -4 | 3 | 8 | -4 | 0
COc1ccc(OCCC(=O)OCC(=O)Nc2cccc(S(=O)(=O)N3CCOCC3)c2)cc1 | i | -2 | -5 | -8 | 4 | 3 | 8 | -8
CCOC(=O)N1CCN(C(=O)c2cn(CCOC)c(=O)c3c2c2ccccc2n3C)CC1 | i | 2 | 4 | -17 | 1 | 2 | 0 | -1
O=C(O)CC1(CC(=O)N2CCOCC2)CCCC1 | . | -6 | -2 | 10 | 1 | 3 | -6 | -11
O=S(=O)(NCc1cn2ccccc2n1)c1ccccc1F | i | 10 | -1 | -10 | -3 | 0 | . | -11
O=C(NCC1CCCO1)c1nnc(Cc2ccc(F)cc2)o1 (stereo not given) | i | 10 | 6 | 0 | -2 | 4 | -14 | 0
CC1=CC(C)(C)NC(=S)N1c1cccc2cc(S(=O)(=O)O)ccc12 | i | 35 | 33 | 0 | -1 | 7 | . | -1
Cc1cccc(OCC(=O)Nc2nnc(S(=O)(=O)N3CCCCCC3)s2)c1 | i | -2 | -2 | 13 | 0 | -3 | -4 | 12
CCOC(=O)C1CCN(C(=O)C2c3ccccc3C(=O)N(C)C2c2ccc(OC)cc2)CC1 (stereo not given) | i | -4 | -6 | -74 | 0 | 3 | -5 | -2
Cc1ccc(S(=O)(=O)N2CCCCC2)cc1NC(=O)c1ccc(Cl)nc1 | . | . | . | 6 | -1 | -5 | -18 | .
NC(=O)c1ccc(NC(=O)C2COc3ccccc3O2)cc1 (stereo not given) | i | -3 | -4 | 10 | 0 | 2 | -6 | -14
COc1ccc(-c2csc(C3=C(O)CN(Cc4ccc(S(N)(=O)=O)cc4)C3=N)n2)cc1OC | i | -1 | 5 | . | 5 | 6 | -2 | -15
Cc1cccc(C)c1NC(=O)N1CC=CCC1 | i | -3 | 3 | 0 | 1 | 1 | -7 | -11
Cc1onc(-c2ccccc2Cl)c1C(=O)Nc1ccc(N2CCOCC2)cc1 | i | -7 | -12 | . | 3 | 6 | -6 | 5
CC(CCc1ccccc1)N1CCN(C)CC1 (stereo not given) | i | -9 | -1 | -56 | 2 | 4 | -17 | -10

Arranged by SMILES length (largest number first): some entries from above
SMILES | Rce1 inh | eIF4H FP inh | PABP FP inh | Env fusion inh | MT1-MMP act inh | MT1-MMP act inh RFP | Yeast UUG start | CSC inhib
COc1ccc(-c2csc(C3=C(O)CN(Cc4ccc(S(N)(=O)=O)cc4)C3=N)n2)cc1OC | i | -1 | 5 | . | 5 | 6 | -2 | -15
CCOC(=O)C1CCN(C(=O)C2c3ccccc3C(=O)N(C)C2c2ccc(OC)cc2)CC1 (stereo not given) | i | -4 | -6 | -74 | 0 | 3 | -5 | -2
Cc1ccc(S(=O)(=O)N2CCCCC2)cc1NC(=O)c1ccc(Cl)nc1 | . | . | . | 6 | -1 | -5 | -18 | .
Cc1onc(-c2ccccc2Cl)c1C(=O)Nc1ccc(N2CCOCC2)cc1 | i | -7 | -12 | . | 3 | 6 | -6 | 5
NC(=O)c1ccc(NC(=O)C2COc3ccccc3O2)cc1 (stereo not given) | i | -3 | -4 | 10 | 0 | 2 | -6 | -14
O=C(NCC1CCCO1)c1nnc(Cc2ccc(F)cc2)o1 (stereo not given) | i | 10 | 6 | 0 | -2 | 4 | -14 | 0
O=S(=O)(NCc1cn2ccccc2n1)c1ccccc1F | i | 10 | -1 | -10 | -3 | 0 | . | -11
O=C(O)CC1(CC(=O)N2CCOCC2)CCCC1 | . | -6 | -2 | 10 | 1 | 3 | -6 | -11
Cc1cccc(C)c1NC(=O)N1CC=CCC1 | i | -3 | 3 | 0 | 1 | 1 | -7 | -11
CC(CCc1ccccc1)N1CCN(C)CC1 (stereo not given) | i | -9 | -1 | -56 | 2 | 4 | -17 | -10

Other records follow.
SMILES | Rce1 inh | eIF4H FP inh | PABP FP inh | Env fusion inh | MT1-MMP act inh | MT1-MMP act inh RFP | Yeast UUG start | CSC inhib
CC(=O)CSc1nnc(CSc2ncccn2)n1C1CCCCC1 | i | 9 | -2 | 4 | -4 | 1 | -12 | -15
CCC(C)(C)NC(=O)CN(C(=O)c1ccc(N2CCCC2)nc1)c1ccc(F)cc1 | i | 3 | 2 | -29 | -3 | -1 | 1 | -12
O=C(NC1CCCC1)C(c1ccccc1)N(Cc1ccc2c(c1)OCO2)C(=O)Cc1cccs1 (stereo not given) | i | 4 | 14 | 26 | -19 | -22 | -6 | 29
CCC(C(=O)NC(C)(C)C)N(Cc1ccco1)C(=O)Cn1nnc(-c2ccc(F)cc2)n1 (stereo not given) | i | 4 | -6 | 22 | -1 | -3 | . | -4
O=C(COc1ccc(Br)cc1Cl)NC(=O)NC1CCCC1 | . | . | . | -46 | 4 | 2 | -13 | .
Cc1cc(C)n2cc(CSc3nnnn3-c3ccc(Cl)cc3)nc2n1 | . | -7 | 9 | . | 0 | -2 | -11 | -1
Cc1nn(CCCC(=O)Nc2cccnc2)c(C)c1[N+](=O)[O-] | i | -12 | 5 | -7 | 1 | 2 | 3 | -2
CCCCN1C(=O)N(C)C2NC(=O)NC21 (stereo not given) | i | 2 | -12 | -67 | -1 | -1 | -12 | 5
Cc1cccc(N(C)S(=O)(=O)c2ccc3[nH]cc(C(=O)N4CCOCC4)c(=O)c3c2)c1 | i | -1 | 1 | . | 1 | 3 | -6 | -17
CN(C)c1ccc(C(=S)N2CCN(C(=S)Nc3ccc(Cl)cc3)CC2)cc1 | i | -6 | -4 | 8 | -1 | -7 | -16 | 1
Cc1ccc(Cn2c(CCCO)nc3ccccc32)cc1 | i | 2 | 14 | -5 | 0 | -4 | -3 | -11
CCCCNC(=O)c1ccc2nc(CC)c(N(CC)CCOC)n2c1 | . | . | . | 10 | -2 | -1 | -6 | .
NC(=O)CC(NSc1ccccc1[N+](=O)[O-])C(=O)O (stereo not given) | i | 2 | 4 | . | -1 | 1 | -24 | -5
CC(=O)c1ccc(N2CCN(C(=O)c3ccc(NC4=NC5CS(=O)(=O)CC5S4)cc3)CC2)cc1 (stereo not given) | i | -3 | -7 | 28 | 0 | -1 | -4 | .
O=C(NCCCNC(=O)c1cccs1)c1cccs1 | i | 7 | 2 | . | -1 | -1 | -26 | 1
CCOC(=O)Cn1c(=O)oc2cc(S(=O)(=O)NC(C)c3ccccc3)ccc21 (stereo not given) | i | 0 | 6 | -13 | 0 | 3 | -6 | 0
CCCS(=O)(=O)NC(=O)C1(C)CCCN(C(=O)c2c(F)ccc(C)c2F)C1 (stereo not given) | . | . | . | 8 | -5 | 7 | -5 | .
COCCCNC(=S)NNC(=O)c1cccnc1 | i | 2 | -2 | -33 | 9 | 4 | -18 | -3
Cc1cccc(-c2oc3ccccc3c2C#CCCCCO)c1 | + | 5 | -2 | 29 | 2 | 1 | -2 | 101*
N#Cc1cccc(Oc2ccc(-c3cnc4ccccc4n3)cc2)c1C#N | i | -10 | 4 | 4 | 6 | 1 | . | 6
CCOC(=O)C1(Cc2cccc(OC)c2)CCN(C/C=C/c2ccccc2)CC1 | i | -18 | -1 | 5 | -5 | 1 | -4 | 6
Cc1ccccc1OC1CCN(C(=O)c2cc(COc3ccccc3)on2)CC1 | . | 4 | 2 | . | 2 | 4 | -17 | 52
Cc1ccc(C)c(C(C)NC(=O)c2ccncc2)c1 (stereo not given) | i | 4 | 0 | -21 | -2 | -5 | -19 | 0
Cc1nnc(SCCn2c(N3CCCCC3)nc3c2c(=O)[nH]c(=O)n3C)s1 | i | 6 | 1 | 7 | 8 | 7 | . | -7
COCCCNC(=O)CSc1nc2sc(C(=O)OC)c(C)c2c(=O)n1N | i | -2 | 36 | 14 | 1 | -1 | . | -21
CCC(CC)C(=O)c1c[nH]c(C(=O)O)c1 | i | -4 | 29 | -13 | 0 | -2 | . | -2
CCC(C)OC(=O)C(C)Oc1ccc(-c2ccccc2)cc1 (stereo not given) | i | 4 | -5 | -58 | 2 | 4 | -15 | 10
COc1cccc(-c2cc(CNC(=O)[C@H]3O[C@@H](n4ccc(=O)[nH]c4=O)[C@H](O)[C@@H]3O)no2)c1 | . | . | . | -18 | 1 | 2 | 3 | .
COc1ccc2nc(NC(=O)c3ccc(-n4nc(C)cc4C)cc3)sc2c1 | i | 2 | 10 | . | -2 | 0 | -19 | -7
CC1(C)CC(=O)C2=C(C1)Nc1ccccc1NC2c1cc(Cl)ccc1O (stereo not given) | i | -4 | 14 | 2 | 3 | -6 | 0 | -9
CN(C)c1ccc(CNC(=O)CCNS(=O)(=O)c2cc(Br)cnc2N)cc1 | i | . | . | . | -9 | -8 | -29 | -9
CCOC(=O)/C=C/C(=O)OCC(=O)NC(c1ccccc1)c1ccccc1 | i | 7 | -6 | -11 | -1 | -2 | -17 | 19
CCOC(=O)C1CCN(C(=O)COC(=O)c2cc([N+](=O)[O-])ccc2N2CCOCC2)CC1 | i | . | . | 1 | -2 | 2 | -18 | -5
COC(=O)C1CCCN1C(=O)COc1ccc(Br)cc1Cl (stereo not given) | i | -4 | 8 | 1 | 3 | 2 | -5 | -8
CCCN(CCC)CCCNC(=O)Cn1cnc2sc(C)c(S(=O)(=O)N3CCOCC3)c2c1=O | i | -8 | 13 | -8 | -5 | 0 | -14 | 6
CNC(=S)NC1CC2CCCC(C1)N2Cc1ccco1 (stereo not given) | i | -17 | 0 | . | . | . | -12 | -13
CCC1CN(C(=O)Nc2ccc(C)cc2)c2cc(C)ccc2O1 (stereo not given) | i | -2 | 9 | 32 | -3 | -4 | . | -2

A portion of the library; rates above refer to the full screens.
